Screening results from PubChem.
YjeE inh: displaces an ADP probe from E. coli YjeE (TsaE). P0AF67. purified YjeE, fluorescence polarisation of a bound ADP probe. Potency, µM. hit rate 0.05% among 71,000. AID 605; active = well fitted falling curve; inconclusive = weaker or top-dose-only fall, or a rising curve; inactive = flat or poorly fitted curve;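 note: top concentration of the series not given in the record; excess ADP was the control for the full effect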
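Purified YjeE (10 uM) with BODIPY Texas Red-labeled ADP probe (2 uM); compounds pin-transferred, 15 min at room temperature. Binding inhibition read as decreased fluorescence polarization; ADP titration as control.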
PK Bst: modulators of Bacillus stearothermophilus pyruvate kinase. partly purified Bacillus stearothermophilus pyruvate kinase, luminescence ATP production; ribose 5-phosphate activator present at AC10. Potency, µM. hit rate 1.2% among 51,000. AID 361; in the data active means potency below about 11 µM; inconclusive means mostly about 12 µM to 25 µM; inactive means weaker than that;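 the screen sought inhibitors and activators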;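 note: potency is the fitted concentration of half-maximal effect; scaled between full activation by ribose 5 phosphate and full inhibition by luteolin; about four in five hits inhibit and the cells do not say which; series up to 57 µM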
Active calls of the source: *; i = inactive; ? = inconclusive; / = not tested or not shown.

Compound | YjeE inh | PK Bst
CCOc1cc(S(=O)(=O)N(CC)CC)ccc1Br | i | >57
Cc1nn(-c2ccc(Cl)cc2)c2sc(C(=O)N3CCN(C(=O)c4ccco4)CC3)cc12 | i | >57
O=C1CSC(=S)N1c1cccnc1 | i | >57
O=C(OCc1cc(=O)n2cc(Br)ccc2n1)C1COc2ccccc2O1 (stereo not given) | i | >57
Cc1nc2cc(NC(=O)NCCC3=CCCCC3)ccc2o1 | i | >57
Cc1oc(-c2cccc(Cl)c2)nc1CN1CCCC(C(=O)NCCCN2CCOCC2)C1 (stereo not given) | i | >57
COCCOC(=O)c1[nH]c2c(c1C)C(=O)CC(c1ccco1)C2 (stereo not given) | i | /
CCCCC(=O)Nc1ccc(NC(=O)CCCC)nc1 | i | >57
CCN(Cc1nc2cc(OC)c(OC)cc2c(=O)[nH]1)C(=O)c1ccc(S(=O)(=O)N(C)C)cc1 | i | >57
Cc1ccc(-c2nc(C3CCCN(S(=O)(=O)c4ccc(C(F)(F)F)cc4)C3)no2)cc1 (stereo not given) | i | >57
CCCOc1ccc(C2/C(=C(/O)c3ccc(F)cc3)C(=O)C(=O)N2CCCN(C)C)cc1 (stereo not given) | i | >57
CN1/C(=C\C(=O)c2ccco2)C(C)(C)c2ccccc21 | i | >57
CCOCCSc1nc2c(c(=O)[nH]c(=O)n2C)n1CCCc1ccccc1 | / | >26
CCOC(=O)C1CCCN(c2nnnn2-c2ccccc2)C1 (stereo not given) | i | >57
C=CCOc1ccc(/C(O)=C2/C(=O)C(=O)N(CCCn3ccnc3)C2c2cccs2)cc1 (stereo not given) | i | /
CN(C)CCCN1CCC2(CCC(C(C)(C)C)CC2)CC1 | i | /
O=C(CCS(=O)(=O)c1cccc2nsnc12)N1CCN(Cc2ccc3c(c2)OCO3)CC1 | i | >57
COc1cccc(N2CCN(Cc3nc(N)nc(N4CCCc5ccccc54)n3)CC2)c1 | i | >57
CN(C)c1ccc(NC(=O)c2cccc(N3C(=O)C4C5C=CC(C5)C4C3=O)c2)cc1 (stereo not given) | i | >57
CCN(CC)c1ccc(CNc2ccc(Br)cn2)cc1 | i | >57
CCOC(=O)c1cccc(C(=O)OCC)n1 | i | >57
O=C(O)C1CCCN1S(=O)(=O)c1ccc2ccccc2c1 (stereo not given) | i | /
Cc1onc(-c2ccccc2)c1C(=O)N1CCN(CCc2ccccc2)CC1 | i | >57
CC(C)C(NC(=O)C1CCCCC1)C(=O)Nc1ccccn1 (stereo not given) | i | >57
COCc1cc(C)n(CC(=O)Nc2ccccc2C(=O)OC)c(=O)c1C#N | i | >57
O=S(=O)(NCCO)c1cccc2cccnc12 | i | /
CCCN(CCC)S(=O)(=O)c1cccc(C(=O)Nc2ccc3c(c2)OCO3)c1 | i | >57
CCN(CCCNC(=O)COc1cc(=O)n(C)c2ccccc12)c1cccc(C)c1 | i | >57
C=CCN1C(=O)C2(C(C(=O)c3ccc(C)o3)=C(O)C(=O)N2CCCN2CCOCC2)c2ccccc21 (stereo not given) | i | >57
Cc1ccc(CN(C(=O)Cn2nnc3ccccc32)C(C(=O)NCc2ccco2)c2cccs2)cc1 (stereo not given) | i | >57
N/C(CCN1CCOCC1)=N/O | / | >11
Cc1cc(C(=O)NC(C)c2ccc3c(c2)OCO3)cs1 (stereo not given) | i | >57
CCC(C)Sc1nc(O)cc(=O)[nH]1 (stereo not given) | i | /
Cc1nc2cnc(Nc3ccccc3)nc2n(CCC#N)c1=O | i | /
CC1CCC(NC(=O)C2CCN(C(=O)NC3CCCCC3)CC2)CC1 (stereo not given) | i | >57
O=C(NC1CCCC1)c1ccc(COCC(F)(F)C(F)F)o1 | i | >57

A second format for part of the listing above:
Values run as follows: YjeE inh	PK Bst
> C=CCN1C(=O)C2(C(C(=O)c3ccc(C)o3)=C(O)C(=O)N2CCCN2CCOCC2)c2ccccc21 (stereo not given)
→ i	>57
> Cc1ccc(CN(C(=O)Cn2nnc3ccccc32)C(C(=O)NCc2ccco2)c2cccs2)cc1 (stereo not given)
→ i	>57
> N/C(CCN1CCOCC1)=N/O
→ /	>11
> Cc1cc(C(=O)NC(C)c2ccc3c(c2)OCO3)cs1 (stereo not given)
→ i	>57
> CCC(C)Sc1nc(O)cc(=O)[nH]1 (stereo not given)
→ i	/
> Cc1nc2cnc(Nc3ccccc3)nc2n(CCC#N)c1=O
→ i	/
> CC1CCC(NC(=O)C2CCN(C(=O)NC3CCCCC3)CC2)CC1 (stereo not given)
→ i	>57

(list continues)
Compound | YjeE inh | PK Bst
CN(C)CCCN1c2ccc(O)cc2Sc2ccc(Cl)cc21 | i | /
CC(=O)C1=C(O)C(=O)N(c2nnn(C)n2)C1c1cccs1 (stereo not given) | i | /
COc1ccc(-c2noc(C3CCCN(S(=O)(=O)c4cccc(Cl)c4)C3)n2)cc1OC (stereo not given) | i | >57
COC(=O)C1=C(C)N(c2cccc(Cl)c2)C(=O)C1 | i | >57
O=S(=O)(c1cnc[nH]1)N1CCc2ccccc21 | ? | /
CCOCCOC(=O)C1=C(C)N(C)C(=O)NC1c1ccccc1Cl (stereo not given) | i | /
CC1CCCC(N2C(=O)NC(NC(=O)c3ccco3)(C(F)(F)F)C2=O)C1C (stereo not given) | i | /
O=C(COC(=O)c1ccco1)Nc1ccc(Br)cc1 | i | /
O=c1oc(-c2ccccc2)nc2c1cnn2-c1ccccc1 | i | >57
COc1ccc(OC)c(NC(=O)NCc2ccc(F)cc2)c1 | i | >57
O=C(COC(=O)c1cc(-c2cccs2)nc2ccccc12)NCc1ccco1 | i | /
CCCCOc1ccc(C(=O)N2CCCC2C(=O)O)cc1 (stereo not given) | / | >26
NC(=O)c1ccccc1NC(=O)CCc1ccccc1 | i | /
COc1ccc(OC)c(Nc2nc(N)nc(-c3cc4ccccc4o3)n2)c1 | i | >57
CCn1c(N)nc2ccccc21 | i | >57
CN1CCN(S(=O)(=O)c2ccc3ccccc3c2)CC1 | i | /
CC(=O)n1cc(-c2ccncc2)c2ccccc21 | i | /
COCCn1c(=O)c(C)nc2cnc(N3CCNCC3)nc21 | i | /
CCCCN(C)C(=O)C1CCN(C/C(C)=C/c2ccccc2)CC1 | i | >57
CC(CCc1ccccc1)NC(=O)CSc1nnnn1C (stereo not given) | i | >57
CCN1CC=C2C(C#N)=C(N)C(C#N)(C#N)C(CCc3ccccc3)C2C1 (stereo not given) | ? | >57
Cn1cccc1C(C(=O)NC1CCCCC1)N(C(=O)Cc1cccs1)C1CC1 (stereo not given) | i | >57
Cc1ccc(C(=O)c2cc(C)sc2NC(=O)CN2CCN(C(=O)c3ccco3)CC2)cc1 | i | >57
Cc1ccc(N(CC(N)=O)C2SC(=O)N(C)C2=O)cc1 (stereo not given) | i | >57
COc1ccc(-c2cc(C(=O)N3CCCc4ccccc43)no2)cc1 | i | i
CCC1CCCCN1CCCNC(=O)C1CCC(=O)N1Cc1ccc(C)cc1 (stereo not given) | i | >57
CC(=O)CSc1ncnc2nc[nH]c12 | i | >57
CCCCS(=O)CC(COCc1ccccc1)OC(=O)CSc1nc(C)cc(C)n1 (stereo not given) | i | /
CC1(C)CC(N(Cc2cccs2)C(=O)c2ccco2)CCO1 (stereo not given) | i | >57
Cc1cc(NC(=O)c2ccc(COc3ccc(Cl)c(C)c3)o2)no1 | i | >57
O=C(c1ccccc1F)N1CCN(CC2CC3C=CC2C3)CC1 (stereo not given) | i | /
Cc1ccc(C)c(N(C(=O)Cn2nnc3ccccc32)C(C(=O)NCc2ccco2)c2ccncc2)c1 (stereo not given) | i | >57
COc1ccc(CCNC(=O)c2ccco2)cc1 | i | /
O=C1Nc2ccccc2C12OCC(COc1ccc(Cl)cc1)O2 (stereo not given) | i | >57
CC(C)CNS(=O)(=O)c1ccc(CCC(=O)NCC2CCCO2)cc1 (stereo not given) | i | >57
COCCCNc1nc2c(c(=O)[nH]c(=O)n2C)n1CC(O)COc1ccccc1C (stereo not given) | i | /
COC(=O)c1ccc(Oc2cc(C)nc(-n3nc(C)cc3C)n2)cc1 | i | /
Cc1cccc(NCc2nc(-c3ccccc3)no2)c1 | i | /
CCOC(=O)C1=C(C)NC(=O)NC1C1CC=CCC1 (stereo not given) | i | >57
Cn1cccc1Cc1nnc(SCC(=O)Nc2ccc(Cl)cc2)n1-c1ccc(F)cc1 | i | /
COC(=O)[C@@H]1CCCN1C(=O)[C@H]1C[C@@H]1[C@H](NC(=O)OCc1ccccc1)c1ccccc1 | i | /
C[C@@]12CCC(=O)C=C1CC[C@@H]1[C@@H]2[C@H](O)C[C@]2(C)[C@@H]1CC[C@]2(O)C(=O)COC(=O)CCC(=O)O | i | /
N=C(N)C(N=Nc1ccccc1)C(=N)N (stereo not given) | i | /
CCOC(=O)C1CCCCN1Cc1ccc(OC)c(OC)c1OC (stereo not given) | i | >57
Cn1c(=O)c2c(SCc3cccnc3)nc(C3CC3)nc2n(C)c1=O | i | /
CCOC(=O)c1ccc(N2C(=O)c3n[nH]c(C)c3C2c2ccc(O)cc2)cc1 (stereo not given) | i | >57
O=C1CC(c2ccc3c(c2)OCO3)c2cc3c(cc2N1)OCCO3 (stereo not given) | i | >57
CCOC(=O)c1cc2c(=O)n3ccccc3nc2n(CCCOC)c1=NC(C)=O | i | >57
CCOc1ccc2nc(N3CCC(C(=O)N4CCN(C(=O)c5ccco5)CC4)CC3)sc2c1 | i | /
COC(=O)c1c(C(=O)OC)c(C)n(Cc2ccco2)c1C | i | >57
Cc1nn(C)c(C)c1S(=O)(=O)N(CC(=O)NCc1cccs1)c1ccc(C(C)C)cc1 | i | /
CCOc1ccc(C(=O)N(C)C2CCS(=O)(=O)C2)cc1 (stereo not given) | i | >57
COc1ccc(Cc2nnc(SCC(=O)NCCc3ccccc3)o2)cc1 | i | /
Cc1nn(CC(=O)N2CCOCC2)c(=O)c2ccccc12 | / | >26
O=C(NCC1CCCO1)C1c2ccccc2C(=O)N1C1CCCCCC1 (stereo not given) | i | >57
COc1cccc(Cn2c(=O)c(-c3ccc(Cl)cc3)nc3cnc(N4CCOCC4)nc32)c1 | i | /
Cc1cnc(CNc2cc(-c3ccccc3Cl)ncn2)cn1 | i | /
CCCSC1=C(C#N)C(c2ccc(OC)cc2)C2=C(CC(C)(C)CC2=O)N1 (stereo not given) | / | >26
CCOc1ccc(-n2cc(C(=O)Nc3cccc(C)n3)c3cc(OC)c(OC)cc3c2=O)cc1 | i | >57
COc1ccc(C(=O)Oc2c(C)occc2=O)cc1OC | i | >57

An excerpt of these results, with values under each structure.
Order of values – YjeE inh	PK Bst
O=C(NCC1CCCO1)C1c2ccccc2C(=O)N1C1CCCCCC1 (stereo not given)
 : i	>57
COc1cccc(Cn2c(=O)c(-c3ccc(Cl)cc3)nc3cnc(N4CCOCC4)nc32)c1
 : i	/
Cc1cnc(CNc2cc(-c3ccccc3Cl)ncn2)cn1
 : i	/
CCCSC1=C(C#N)C(c2ccc(OC)cc2)C2=C(CC(C)(C)CC2=O)N1 (stereo not given)
 : /	>26
CCOc1ccc(-n2cc(C(=O)Nc3cccc(C)n3)c3cc(OC)c(OC)cc3c2=O)cc1
 : i	>57
COc1ccc(C(=O)Oc2c(C)occc2=O)cc1OC
 : i	>57

Other compounds.
Compound | YjeE inh | PK Bst
CCOC(=O)CCNC(C)C1COc2ccccc2O1 (stereo not given) | i | >57
O=S(=O)(c1ccccc1)N1CCC[C@@]2(CCN(Cc3ccccc3)C2)C1 | i | /
COc1ccc(S(=O)(=O)Nc2cc(C(C)C)c(O)cc2C)cc1 | i | >57
COc1cc(NC(=O)CCc2ccccc2)nc(OC)n1 | i | >57
O=C(CCn1c(=S)[nH]c2ccccc2c1=O)NCCCN1CCCC1=O | i | >57
COc1cccc(CNc2nn[nH]n2)c1OC | i | >57
CC(=O)c1ccc(NC2OC(CO)C(O)C(O)C2O)cc1 (stereo not given) | i | >57
OCCN(CCO)c1ncnc2nc[nH]c12 | i | /
CCCCNC(=O)CCCCCNS(=O)(=O)c1ccc(OC)cc1 | i | >57
CN1CCN(c2nc3c(c(=O)[nH]c(=O)n3C)n2Cc2cccc3ccccc23)CC1 | i | >57
CCOC(=O)C1CCCN(S(=O)(=O)Cc2ccccc2)C1 (stereo not given) | i | >57
CCCCc1c(O)nc(SCC(=O)N2CCCCC2)n(-c2ccccc2C)c1=O | i | >57
CCCCN1C(=O)c2ccccc2C1C(=O)NC1CCCC1 (stereo not given) | i | >57
Cc1ccc(C)c(NC(=O)CSc2nc3c(c(=O)n2C)SC(C)C3)c1 (stereo not given) | i | /
CCOC(=O)CSc1nnc2n1C(C)(C)Cc1ccccc1-2 | i | >57
N#Cc1nc(-c2ccccc2F)oc1NC1CCCCC1 | i | /
Cc1cccc(C(=O)NCc2nnc(SCC(=O)N3CCN(c4ccccc4)CC3)n2C)c1 | i | >57
Cc1cccnc1NCc1ccc(O)c2ncccc12 | i | >57
O=C1OC(c2ccc(Br)cc2)=N/C1=C\N1CCCCC1 | i | /
COC(=O)C1=C(CSc2nc3ccccc3o2)NC(=O)NC1c1cc(C)ccc1C (stereo not given) | i | >57
Cc1sc(NC(=O)c2ccc(Cl)s2)c(C(N)=O)c1C | i | /
O=C(Nc1nccs1)c1cccc(S(=O)(=O)N2CCOCC2)c1 | i | /

The list is partial; rates above refer to the full screens.
